Screening results from PubChem BioAssay.
KCNQ2 enhance = potentiators of rat KCNQ2 potassium channel; O88943; 310,000 compounds, 0.54% hits; CHO-K1 KCNQ2, FluxOR thallium flux fluorescence; active compounds read high; AID 2239; B-score at 10 µM;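 active = fluorescence ratio B-score at least 3 SD of library B-scores, with initial fluorescence B-score within 3 SD, cut at about 5.3 in these data; same plate scores as AID 2156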;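 note: B-score of peak minus minimum over baseline fluorescence ratio after K+ and Tl+ stimulus; positive B-score means potentiation of KCNQ2 with more thallium influx and brighter signal; only the inactives scoring about 0 or higher are listed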
Target sequence (O88943 whole entry, looked up): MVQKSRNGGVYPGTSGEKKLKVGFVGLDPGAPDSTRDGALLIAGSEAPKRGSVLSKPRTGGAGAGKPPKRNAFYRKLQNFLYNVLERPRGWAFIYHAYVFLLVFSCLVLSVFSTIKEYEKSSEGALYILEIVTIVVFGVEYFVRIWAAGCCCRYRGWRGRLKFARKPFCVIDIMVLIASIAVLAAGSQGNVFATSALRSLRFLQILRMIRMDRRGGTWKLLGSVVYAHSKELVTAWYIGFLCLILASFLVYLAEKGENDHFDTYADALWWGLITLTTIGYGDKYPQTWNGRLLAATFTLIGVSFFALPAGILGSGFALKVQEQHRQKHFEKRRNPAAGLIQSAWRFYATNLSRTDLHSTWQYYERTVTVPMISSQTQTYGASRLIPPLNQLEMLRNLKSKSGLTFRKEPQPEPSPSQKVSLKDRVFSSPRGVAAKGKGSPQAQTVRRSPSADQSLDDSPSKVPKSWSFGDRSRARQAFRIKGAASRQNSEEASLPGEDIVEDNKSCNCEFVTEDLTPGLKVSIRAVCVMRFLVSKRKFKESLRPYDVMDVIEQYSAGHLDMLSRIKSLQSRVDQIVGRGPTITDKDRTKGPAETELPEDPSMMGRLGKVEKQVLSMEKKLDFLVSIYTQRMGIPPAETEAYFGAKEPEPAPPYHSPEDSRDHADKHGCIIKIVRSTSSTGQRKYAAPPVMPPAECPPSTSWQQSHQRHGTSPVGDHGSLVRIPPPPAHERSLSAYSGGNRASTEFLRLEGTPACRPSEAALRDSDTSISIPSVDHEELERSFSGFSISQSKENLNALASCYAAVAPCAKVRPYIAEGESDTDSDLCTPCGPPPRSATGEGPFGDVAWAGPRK
KCNQ2 enhance baseline = recorded beside KCNQ2 enhance, whose call it bears; B-score; compound at 10 µM; measured here: initial fluorescence intensity artifact check;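 brightness before thallium and not channel activity; 0 = typical well and far values either way flag optical interference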
The depositor's hits bear a star. Not all compounds are listed; the hit share may differ from the screen's.

Preview, four compounds:
SMILES	KCNQ2 enhance	KCNQ2 enhance baseline
COc1ccc(-c2cc(C(=O)Nc3cc(OC)c(OC)c(OC)c3)no2)cc1	0.53	-2.3
Cc1cc(-c2csc(NC(=O)c3cc4ccccc4o3)n2)c(C)n1C	0.44	0.6
CC1(C)Nc2ccccc2C(=O)N1c1ccccc1	0.11	-0.8
CC1(C)OC(=O)C=C(CC2NS(=O)(=O)OC3CCCCC23)O1 (stereo not given)	0.01	0.85

This part in full (from the top)
SMILES	KCNQ2 enhance	KCNQ2 enhance baseline
COc1ccc(-c2cc(C(=O)Nc3cc(OC)c(OC)c(OC)c3)no2)cc1	0.53	-2.3
Cc1cc(-c2csc(NC(=O)c3cc4ccccc4o3)n2)c(C)n1C	0.44	0.6
CC1(C)Nc2ccccc2C(=O)N1c1ccccc1	0.11	-0.8
CC1(C)OC(=O)C=C(CC2NS(=O)(=O)OC3CCCCC23)O1 (stereo not given)	0.01	0.85
O=C1CCCCC1C(Nc1ccc(Br)cc1)c1ccccc1 (stereo not given)	1.2	-0.6
O=C1CC(c2ccc(F)cc2)C(n2cncn2)C(O)=C1C1NCCc2ccccc21 (stereo not given)	0.4	-0.31
COc1ccc(C)cc1S(=O)(=O)N(CC(=O)Nc1cccc([N+](=O)[O-])c1)c1cc(C)cc(C)c1	1.1	0
CCS(=O)(=O)c1ccc(O)c(NC(=O)Nc2ccc(C(C)(C)C)cc2)c1	0.36	-1
CCOC(=O)N1CCN(C(=O)Cn2c(C)cc3ccccc3c2=O)CC1	0.73	-0.33
Cn1c(SCC(=O)NCc2ccc(F)cc2)nc2c([nH]c3ccccc32)c1=O	0.02	2.5
COc1ccc(CNC(=O)Cn2cc3c(n2)CCCCC3)cc1	0.78	0.97
Cc1cc(Oc2ccc(-c3nnc(-c4ccccc4)o3)cc2[N+](=O)[O-])ccc1Cl	0.65	-0.75
CC(=O)Nc1ccc(NCN2C(=O)C3C4CCC(C4)C3C2=O)cc1 (stereo not given)	1.2	0.53
Cn1c(SCC(=O)Nc2ccc3c(c2)OCCO3)nnc1-c1ccncc1	0.55	2.3
CCOC(=O)c1c(C)[nH]c(C)c1S(=O)(=O)NCc1ccccc1C	0.34	-0.41
CCCCN(C(=O)c1cc(Cl)nc2ccccc12)c1c(N)n(CCCC)c(=O)[nH]c1=O	1.1	1.6
Cc1cc(OCc2nn[nH]n2)c2c(C)c(CC(=O)O)c(=O)oc2c1	0.52	0.8
COc1ccc(CCn2c(-c3ccc(F)cc3)nc3c(c(=O)c4ccccc4n3C)c2=O)cc1OC	1.5	-0.45
CN1CCN(C(=O)C2=C[C@@H](c3ccccc3)C[C@@H](OCc3ccc(CO)cc3)O2)CC1	1.1	-0.87
CN(CC(=O)N1CCOCC1)S(=O)(=O)c1cc(Cl)ccc1Cl	1	-0.33
O=C(O)CCCC(=O)Nc1ccccc1-n1ccnc1	1.3	0.44
CCOC(=O)N1CCC(NC(=O)CS(=O)(=O)Cc2nc(-c3cccc(Cl)c3)oc2C)CC1	0.92	0.82
COc1ccc(S(=O)(=O)N[C@@H](CSCc2ccccc2)C(=O)O)cc1	0.78	2.4
CC1CCC(NC(=O)CN2C(=O)NC(C)(C)C2=O)CC1 (stereo not given)	1.8	0.15
Cc1ccc(CNC(=O)c2ccccc2CCc2ccccc2)cc1	5.1	1
CCn1c(SCC(=O)N/N=C/c2ccccc2OCC(=O)O)nnc1-c1ccccc1	0.01	-2
CCNC(=S)NN=C1CCC(C(C)(C)C)CC1 (stereo not given)	0.44	2.8
Cc1cc2nc(-c3ccc(SCC(=O)NC(C)C)nc3)[nH]c2cc1C	0.11	-0.56
O=C(NC1CC1)C1CCN(C2CCN(C(=O)/C=C/c3cccc(F)c3F)CC2)CC1	0.07	-1.4
COCCNC(=O)C(c1ccc(Cl)cc1)N(C(=O)Cn1nnc2ccccc21)c1cccnc1 (stereo not given)	1	2.4
O=C(CCc1ccccc1)NNC(=S)Nc1ccc(F)cc1	1.2	0.25
O=C(Nc1ccc(N2CCOCC2)cc1)c1ccc([N+](=O)[O-])cc1	1.4	-0.55
Cc1cc(C)c2c(=O)n(CC(=O)Nc3ccc(Cl)cc3)sc2n1	3.8	1.2
CC(=O)Nc1ccc(N2C(=O)CC(N3CCSCC3)C2=O)cc1 (stereo not given)	0.6	-0.22
COc1ccc(Nc2nc(N)nc(CN3CCN(c4ccccn4)CC3)n2)cc1	0.03	-0.85
Cc1csc(NC(=O)CSc2nnc(NC(=O)C3CC(=O)N(c4ccccc4)C3)s2)n1 (stereo not given)	0.27	-2
O=C(NCC1CCCCC1)c1ccc(=O)[nH]c1	3.2	0.13
Cc1c(C(=O)N2CCCC2)oc2c1-c1nn(CC(=O)NCCCN3CCCCC3C)cc1CC2 (stereo not given)	1.5	-0.1
Cc1ccsc1C1CC(=O)OC2=C1C(=O)CC(C)(C)C2 (stereo not given)	2	-1.1
CC(C)CC(=O)NC(=S)Nc1ccc(NC(=O)c2cccs2)cc1	0.67	0.57
COCc1cc(=O)[nH]c(-c2ccccc2OC(F)(F)F)n1	0.25	-0.47
O=C(NCC1CCCO1)c1cccs1 (stereo not given)	0.96	1.6
CCOc1cc(C(=O)N/N=C/c2ccsc2)cc(OCC)c1OCC	0.68	0.97
O=c1c2cn[nH]c2[nH]c(=S)n1-c1ccccc1F	0.43	0.69
Cc1cc(/C=N/n2c(COc3ccccc3C)nc3ccccc3c2=O)c(O)c([N+](=O)[O-])c1	1.6	-0.02
CC(C)(C)C(=O)CN1C2=NCCCN2c2ccccc21	0.03	-0.03
O=C1C2CCCN2C(=O)N1CCCCN1CCN(CCO)CC1 (stereo not given)	0.85	1.4
CC(C)C(=O)Nc1ccc(NC(=S)NC(=O)c2cc3ccccc3o2)cc1	0.02	-0.06
COc1ccccc1N1CCN(C(=O)CCc2nnc3ccc(N4CCC(C)CC4)nn23)CC1	0.2	0.03
CC(C)(C)S(=O)(=O)c1cnc(-c2ccc(Cl)cc2)nc1N	0.22	1.2
COc1ccc(OC)c(-c2cc(C(=O)NCc3ccco3)no2)c1	0.88	1.9
COc1cccc(OC)c1NC(=O)CN1CCN(C)CC1	0.75	-1.1
O=C(Nc1cccc(F)c1)C1CCCN(S(=O)(=O)c2cccc3cccnc23)C1 (stereo not given)	0.61	-0.08
COC(=O)c1ccc(C)c(NC(=O)CCc2ccc(OC)cc2)c1	2	-2.5
CCCCNC(=S)NNC(=O)c1sccc1C	0.3	-0.74
CCC(=O)c1cc(F)c(N2CCN(S(=O)(=O)c3ccc(C)cc3)CC2)cc1C	1.4	-0.05
O=C(C[n+]1ccccc1)N/N=C/c1ccccc1C(F)(F)F	0.44	-0.41
Cc1cc(NC(=O)CN2C(=O)NC(Cc3ccccc3)C2=O)no1 (stereo not given)	0.44	-2.9
Cc1cc(C)c(NS(=O)(=O)c2ccc(NC(=O)/C=C/C(=O)O)cc2)c(C)c1	1.4	0.36
Cc1cccc2sc(NNC(=O)c3cc(=O)c4ccccc4o3)nc12	0.27	-0.43

(further entries)
SMILES	KCNQ2 enhance	KCNQ2 enhance baseline
COc1ccc(Nc2ncnc3sc(-c4ccccc4)cc23)cc1OC	1.6	-0.88
CSc1nnc2n(-c3ccc(C)cc3)c(=O)c3c4c(sc3n12)COC(C(C)C)C4 (stereo not given)	0.45	1.7
Cc1cc(NC(=O)Cn2nc([N+](=O)[O-])c(Br)c2C)no1	0.77	-0.25
Oc1ccc2cc(Br)ccc2c1CN1CCCC1	1.6	-0.29
CC1(C)CC(=O)/C(=C(\O)CCCN2C(=O)c3ccccc3C2=O)C(=NCCO)C1	3.3	2.4
CC(C)(Oc1ccc(Cl)cc1)C(=O)OCn1nnc2ccccc2c1=O	1	0.34
O=C(NCc1ccc2c(c1)OCO2)C1CCN(C(=O)Nc2ccc(Cl)cc2)CC1	1.6	2
COC(=O)CCC(=O)Nc1cccc2ccccc12	0.28	0.9
COCc1nnc(NS(=O)(=O)c2ccc(C)cc2)s1	0.02	-0.72
COc1ccc(C2N(c3ccc(F)cc3)C(=O)C3CCCN32)cc1 (stereo not given)	0.04	1.1
CN(C)c1ccc(CN(C)C2CCCCC2)cc1	0.14	-2.4
Cc1nn(-c2ccccc2)c(C)c1/C=C/C(=O)OCC(=O)NC1CCS(=O)(=O)C1 (stereo not given)	0.94	1.9
O=C(CSc1nnc(-c2ccccc2O)o1)N1CCOCC1	1.6	0.04
Cc1ccc(N(C)S(=O)(=O)c2cccc(C(=O)NC3CC(C)(C)NC(C)(C)C3)c2)cc1	0.54	0.05
COc1ccc(S(=O)(=O)N2CCC(C(=O)NCCC3=CCCCC3)CC2)cc1OC	1.2	-0.79
COc1ccccc1CN1CC(C(=O)N2CCCCCCC2)CCC1=O (stereo not given)	2.5	-1.8
CC(OC(=O)C1=Cc2ccccc2OC1)C(=O)NC1CCCC1 (stereo not given)	1.2	-1.4
CCOc1ccc(NC(=O)N2CCC(NC(=O)C(Cc3ccc(OC)c(OC)c3)NC(C)=O)CC2)cc1 (stereo not given)	0.56	-0.63
CN1C(=O)CSc2ccc(NC(=O)N3CCN(c4ccccn4)CC3)cc21	0.53	0.39
Cc1cc(C(=O)N2CCN(c3ccc([N+](=O)[O-])cc3)CC2)no1	1.5	0.16
O=C(C1CCN(Cc2ccccc2)CC1)N1CCCC1	0.42	-0.52
COc1cccc(NC(=O)CN(C)C(=O)CSc2ncnc3sc(C)c(C)c23)c1	2.8	-0.05
CN1CC(=O)Nc2ccc([N+](=O)[O-])cc2C1=O	0.75	-0.72
S=C(Nc1ccc(Br)cc1)NC1CCCCC1	0.8	-0.28
COC(=O)c1sc2ccccc2c1NC(=O)c1ccc(S(=O)(=O)N2CCCCC2C)cc1 (stereo not given)	0.03	1.7
O=C(O)c1cc(Cl)c2c(c1)[C@@H]1C=CC[C@@H]1[C@H](c1ccc(S(=O)(=O)N3CCOCC3)cc1)N2	0.41	1.2
O=C(Nc1ccc2oc(=O)ccc2c1)c1ccc(-c2cccc(Cl)c2)o1	0.86	2.1
COC(=O)[C@@H]1C[C@@]2(O)[C@@H](O)[C@@H](O)[C@@H](O)C[C@H]2N1C/C=C/c1ccccc1	0.03	-0.11
CSc1ncccc1C(=O)OCn1nnc2ccccc2c1=O	0.48	-0.52
Cc1cc(C)nc(N/N=C/c2c(CO)cnc(C)c2O)n1	0.62	0.05

Single records, from the list above. Values in the order: KCNQ2 enhance	KCNQ2 enhance baseline
Record of `CN1CC(=O)Nc2ccc([N+](=O)[O-])cc2C1=O` : 0.75	-0.72
Record of `O=C(NCc1ccc2c(c1)OCO2)C1CCN(C(=O)Nc2ccc(Cl)cc2)CC1` : 1.6	2

(cont.)
SMILES	KCNQ2 enhance	KCNQ2 enhance baseline
COc1ccc(/C(O)=C2/C(=O)C(=O)N(c3ccccn3)C2c2cccc(Cl)c2)cc1 (stereo not given)	0.88	0.52
CN(CCc1cnn(C)c1)Cc1nc(CC2CC2)no1	0.55	0.39
CC(C)[C@@H]1COC(c2cccc(C3=N[C@H](C(C)C)CO3)c2)=N1	0.59	-0.03
C=CCn1c(C(C)NC(=O)c2ccc(C)cc2)n[nH]c1=S (stereo not given)	0.65	1.4
COc1cccc(NC(=O)CN2C(=O)NC(C)(CC(C)C)C2=O)c1 (stereo not given)	0.64	1.1
COc1ccc(N2CCCC2=N)c(OC)c1	0.45	-0.74
CCOC(=O)Cc1cc(=O)n2[nH]c(C)c(C#N)c2n1	0.31	0.04
O=C(Nc1ccc(C(=O)N2CCCC2)cc1)c1ccccc1Br	0.07	0.52
COCCNc1cc(C)nc2ccccc12	0.1	-1.5
Cc1ccc(-n2nc3c(=O)n(CC(=O)NC4CCCCCC4)nc(C)c3c2C)cc1	0.26	-0.79
CC(C)NC(=O)CN(c1cccc([N+](=O)[O-])c1)S(=O)(=O)c1ccccc1	0.99	2.3
O=C(Nc1ccc(Cl)c(NC(=O)c2cccs2)c1)c1ccco1	0.09	0.46
COc1ccc(Cl)cc1-c1nc(SCC(=O)NC(C)(C)C)n[nH]1	1.6	-1.7
C[C@H](NC(=O)c1ccccc1Cl)C(=O)OCC(=O)N1CC2(C)CC1CC(C)(C)C2 (stereo not given in full)	0.93	-0.45
CCOc1ccc(N(CC(=O)NCC2CCCO2)S(=O)(=O)c2ccc(Cl)cc2)cc1 (stereo not given)	1	-2.6
NNC(=O)[C@H](Cc1ccccc1)NC(=O)NCCc1ccccc1	0.04	-0.41
O=C(Cn1nnc(-c2ccccc2)n1)Nc1cccc(S(=O)(=O)N2CCOCC2)c1	0.5	-0.42
Cc1oc2nc(SCCCC(=O)NCCO)nc(N)c2c1C	1.4	0.29
CCc1nc(SCc2cccnc2)[nH]c(=O)c1C	0.39	0.5
CCOC(=O)c1cc(C#N)c(N)nc1C	1.4	-0.93
O=C(NCc1ccncc1)c1cnccn1	0.01	0.38
O=C(CN1CCCC1)Nc1nnc(-c2cccs2)s1	0.56	-0.94
CCN1/C(=C/c2ccc3ccccc3[n+]2CCCS(=O)(=O)[O-])C=Cc2cc(C)ccc21	0.41	0.31
COc1ccc(CCNC(=O)CCCn2nc(C)n3ccnc3c2=O)cc1OC	2.1	-2
Cc1ccc2c(COC(=O)CC3Sc4ccccc4NC3=O)cc(=O)oc2c1C (stereo not given)	0.03	-0.03
